Source: PubChem BioAssay
PD-1 reversal: reversal of PD-1 mediated T-cell inhibition; primary human CD4 T cells, PD-L1 beads, CellTiter-Glo 96 h; activation, % (concentration not given with the values); 29,000 tested, under 10 active;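 active = replicate mean of 50% or more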;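 also: 0% = median vehicle wells and 100% = positive control; 100 nL library stock added to about 50 µL; numbers are from one replicate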
MITF inh: MITF inhibition; TRPM1 promoter luciferase, luminescence, 24 h; inhibition, % (no concentration beside the values); hit rate 0.28% among 37,000;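 active = most replicates at 85% or more, or half of them and the mean; inconclusive = half reach 85% but not the mean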;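 also: human melanocyte line stably carrying TRPM1 promoter luciferase reporter; 0% = vehicle wells and 100% = a positive control; the first replicate is given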
YB-1 expr inh: YB-1 expression inhibition; hit rate 0.37% among 30,000; delta delta Cp (YB-1 minus CDIP) (no concentration beside the values); U2OS, qRT-PCR YB-1 vs CDIP delta delta Cp, 16 h; hits give high values; zero = DMSO, each unit about twofold; AID 434959;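 active = delta delta Cp rounded down to an integer at or above 3, about 3 SD of DMSO wells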;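 also: higher means less YB-1 transcript or more CDIP transcript relative to DMSO; stock transfer was 100 nL into about 100 µL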
Shh pathway inh: Sonic Hedgehog pathway inhibition; Shh-LIGHT2 Gli-luciferase reporter, 30 h; inhibition, % (test concentration not listed); hit rate 2.1% among 22,000; AID 2313;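 active = replicate mean of 65% or more; inconclusive = mean lower but half the replicates past it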;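 also: pathway switched on by Shh-conditioned medium diluted 1 in 25 in low serum; 100 nL library stock added to about 40 µL; 0% = median of neutral wells and 100% = positive control level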
* = called active by the depositor; ? = inconclusive; nt = no result given; & = joins results of further samples. Only part of the results is shown (hit frequency here may not be typical).

SMILES	PD-1 reversal	MITF inh	YB-1 expr inh	Shh pathway inh
Cc1ccc(S(=O)(=O)Nc2ccc3c(c2)CC(=O)N([C@@H](C)CO)C[C@H](C)[C@H](CN(C)S(=O)(=O)c2ccccc2)O3)cc1	2.2	-9	-0.52	?
Cc1cc(C(F)F)n2nc(C(=O)Nc3c(C)nn(Cc4ccc(Cl)cc4)c3C)nc2n1	3.3	-11	nt	nt
CC(C)CC(=O)O[C@@H]1OC=C(CO[C@@H]2O[C@H](CO)[C@@H](O)[C@H](O)[C@H]2O)[C@H]2C[C@H](O)[C@@](C)(O)[C@@H]12	nt	nt	0.1	-30
CC(C)(C)C(=O)CSc1nnc(-c2cnccn2)s1	2.7	-26	0.25	-112
COc1ccc(OC)c(NC(=O)CCN2CCN(c3ccccc3F)CC2)c1	-1.6	3	nt	nt
C[C@@H]1CCCCO[C@@H](CN(C)C(=O)C2CCCCC2)[C@@H](C)CN([C@H](C)CO)C(=O)c2cc(NC(=O)c3ccncc3)ccc2O1	-1.7	-2	-0.22	-14
COc1ccc(C(=O)CC2(O)C(=O)N(CCCC#N)c3ccccc32)c(OC)c1 (stereo not drawn)	-0.5	6	nt	nt
COc1ccc(C(=O)CSc2nnc(-c3cccc(C)c3)n2-c2ccccc2)cc1	1.1	-35	nt	nt
Cc1cc(C)c(NC(=O)CN(c2ccc(Oc3ccccc3)cc2)S(C)(=O)=O)c(C)c1	0.5	19	nt	nt
Cc1c(Cl)cccc1NC(=O)Cn1cc(C(=O)C2CC2)c2ccccc21	-0.2	43	nt	nt
N=c1oc2ccc3ccccc3c2cc1C(=O)Nc1ccccc1	-0.3	11	-0.57	4
O=C(Nc1ccc(S(=O)(=O)Nc2ncccn2)cc1)c1ccccc1Oc1ccccc1	1.7	-3	nt	nt
COc1ccc(NC(=O)Nc2ccc3c(c2)C(=O)N([C@H](C)CO)C[C@@H](C)[C@@H](CN(C)S(=O)(=O)c2ccc(F)cc2)O3)cc1	0.8	-9	0.13	-25
COC(=O)[C@]1(Cc2ccc(O)c(CC=C(C)C)c2)OC(=O)C(=O)C1c1ccc(O)cc1 (stereo partly drawn)	-1.2	-6	0.42	-41
COc1ccc(-n2c(SCCC(=O)O)nnc2-c2ccncc2)cc1	0.8	6	nt	nt
C[C@H]1CN([C@@H](C)CO)C(=O)c2cccc(NC(=O)C3CC3)c2O[C@H]1CN(C)Cc1ccc(Cl)c(Cl)c1	-1.4	-8	0.25	-8
C[C@H]1CN([C@@H](C)CO)C(=O)c2cc(NC(=O)Cc3cn(C)c4ccccc34)ccc2O[C@@H]1CN(C)C	0.4	8	-0.093	2
C[C@H]1CN([C@@H](C)CO)C(=O)Cc2cc(N(C)C)ccc2O[C@H]1CN(C)C(=O)Nc1cccc2ccccc12	-0.1	-1	0.37	-11
C[C@@H]1CN([C@@H](C)CO)C(=O)c2cccc(NC(=O)Nc3cccc4ccccc34)c2O[C@H]1CN(C)S(=O)(=O)c1ccccc1	-0.4	-2	0.16	0
COc1ccc(S(=O)(=O)N(C)C[C@@H]2OCCCC[C@@H](C)Oc3ccc(NS(=O)(=O)c4ccccc4)cc3C(=O)N([C@H](C)CO)C[C@@H]2C)cc1	-3.6	21	0.028	35
C[C@@H]1CCCCO[C@@H](CN(C)C(=O)CCCN(C)C)[C@@H](C)CN([C@H](C)CO)C(=O)c2cc(NC(=O)c3ccncc3)ccc2O1	1.6	-4	0.21	-29
C[C@@H]1CN([C@@H](C)CO)C(=O)c2cccc(NC(=O)Nc3ccccc3)c2O[C@H]1CN(C)S(=O)(=O)c1ccc(F)cc1	-0.2	-3	-0.28	15
CCOC(=O)c1cnc(Nc2nc3ccccc3s2)nc1CSc1ncccn1	0.5	-15	0.28	8
NC(=O)C1(N2CCCCC2)CCN(C(=O)CSc2nc3ccccc3[nH]2)CC1	-1.6	-6	nt	nt
CC(=O)c1cccc(N(CC(=O)Nc2ccc(C(F)(F)F)cc2)S(C)(=O)=O)c1	-2.0	0	nt	nt
COc1ccc(S(=O)(=O)Nc2ccc3c(c2)C(=O)N([C@H](C)CO)C[C@H](C)[C@H](CN(C)Cc2ccc(C(=O)Nc4ccccc4N)cc2)OCCCC[C@@H](C)O3)cc1	-1.3	21	0.54	nt
N/C(=N\S(=O)(=O)c1ccc(Cl)c(Cl)c1)c1ccccn1	0.2	5	-0.014	-24
C[C@H](CO)N1C[C@H](C)[C@@H](CN(C)C(=O)Nc2ccccc2)Oc2c(NS(=O)(=O)c3ccc(F)cc3)cccc2C1=O	-0.1	2	0.046	-7
C[C@@H]1CN([C@H](C)CO)C(=O)c2cc(NC(=O)CCN3CCOCC3)ccc2O[C@H]1CN(C)C(=O)Nc1ccc2c(c1)OCO2	2.3	-10	-0.63	nt
COc1ccc(CN(C)C[C@@H]2Oc3c(NC(=O)c4cc(C)nn4C)cccc3C(=O)N([C@@H](C)CO)C[C@H]2C)cc1	1.3	-12	-0.048	-5
N#Cc1nc(-c2ccccc2Cl)oc1NCCCN1CCOCC1	-0.5	-22	nt	nt
COc1ccc(NC(=O)Nc2ccc3c(c2)C(=O)N([C@H](C)CO)C[C@H](C)[C@@H](CN(C)C(=O)CCC(F)(F)F)OCCCC[C@@H](C)O3)cc1	nt	18	0.063	-38
C[C@@H]1CN([C@@H](C)CO)C(=O)c2cc(NS(=O)(=O)c3ccc(Cl)cc3)ccc2O[C@H]1CN(C)S(=O)(=O)c1ccc(F)cc1	-0.3	-9	0.045	nt
CCCN(C)C[C@@H]1OCCCC[C@@H](C)Oc2ccc(NS(=O)(=O)c3cn(C)cn3)cc2C(=O)N([C@H](C)CO)C[C@@H]1C	1.0	-2	0.088	-34
CCSC1=C(C#N)C(=O)NC(CO)S1 (stereo not drawn)	-1.4	-33	-0.22	16
COc1ccc(NC(=O)N(C)C[C@H]2Oc3ccc(NS(=O)(=O)c4ccc(C)cc4)cc3CC(=O)N([C@@H](C)CO)C[C@@H]2C)cc1	0.3	-7	0.03	-22
C[C@H]1CN([C@@H](C)CO)C(=O)c2cccc(NC(=O)Nc3ccc(F)cc3)c2O[C@@H]1CN(C)Cc1ccc(C(F)(F)F)cc1	-0.3	38	-0.18	0
COc1ccc(C(=O)c2ccccc2)cc1	-0.7	-19	-0.076	nt
COC(=O)c1ccc(C(=O)OC)c(NC(=O)c2ccccc2N(C)S(C)(=O)=O)c1	0.7	-3	nt	nt
C[C@H]1CN([C@@H](C)CO)C(=O)c2cccc(NC(=O)c3nc4ccccc4s3)c2O[C@H]1CN(C)C(=O)Nc1cccc2ccccc12	nt	-11	-0.031	27

Continued (4 carried over from the part before).
SMILES	PD-1 reversal	MITF inh	YB-1 expr inh	Shh pathway inh
C[C@H]1CN([C@@H](C)CO)C(=O)c2cccc(NC(=O)Nc3ccc(F)cc3)c2O[C@@H]1CN(C)Cc1ccc(C(F)(F)F)cc1	-0.3	38	-0.18	0
COc1ccc(C(=O)c2ccccc2)cc1	-0.7	-19	-0.076	nt
COC(=O)c1ccc(C(=O)OC)c(NC(=O)c2ccccc2N(C)S(C)(=O)=O)c1	0.7	-3	nt	nt
C[C@H]1CN([C@@H](C)CO)C(=O)c2cccc(NC(=O)c3nc4ccccc4s3)c2O[C@H]1CN(C)C(=O)Nc1cccc2ccccc12	nt	-11	-0.031	27
COc1ccc(S(=O)(=O)Nc2ccc3c(c2)C(=O)N([C@@H](C)CO)C[C@H](C)[C@@H](CN(C)C)O3)cc1	0.2	-6	0.44	-40
Cc1cccc(NC(=O)CSc2nnc(-c3cccnc3)n2-c2ccccc2)c1C	1.2	2	nt	nt
CCOC(=O)c1c(CN2CCOCC2)n(-c2ccccc2)c2ccc(O)cc12	-1.2	-18	0.042	57
CC(=O)c1cccc(NC(=O)NCc2cc(C)n(C)n2)c1	0.2	-13	nt	nt
C[C@H](CO)N1C[C@H](C)[C@H](CN(C)C(=O)Nc2ccc3c(c2)OCO3)Oc2ccc(NC(=O)C3CCCCC3)cc2CC1=O	-0.4	-2	-0.16	nt
Cc1cc(C(=O)Nc2cccc3c2O[C@@H](CN(C)S(=O)(=O)c2cn(C)cn2)[C@@H](C)CN([C@@H](C)CO)C3=O)n(C)n1	2.2	-3	1.4	-38
Cc1noc(C)c1NC(=O)Nc1cccc2c1O[C@H](CN(C)C(=O)Nc1ccc(F)cc1)[C@@H](C)CN([C@@H](C)CO)C2=O	1.8	-4	0.25	-56
C=CCSc1ncc(-c2ccc(Cl)cc2)n1C	0.0	-34	0.061	-30
FC(F)(F)c1ccc(Cl)c(Nc2ncnc(-n3cccc3)n2)c1	-0.2	7	-0.77	nt
COc1ccc(S(=O)(=O)Nc2ccc3c(c2)C(=O)N([C@@H](C)CO)C[C@@H](C)[C@H](CN(C)Cc2ccc(Oc4ccccc4)cc2)O3)cc1	-1.8	37	0.28	nt
COc1ccc(NC(=O)Nc2ccc3c(c2)CC(=O)N([C@@H](C)CO)C[C@@H](C)[C@@H](CN(C)C(=O)NC2CCCCC2)O3)cc1	2.4	-13	0.44	-15
C[C@@H]1CN([C@H](C)CO)C(=O)Cc2cc(NC(=O)CCC(F)(F)F)ccc2O[C@@H]1CN(C)S(=O)(=O)c1cccs1	-0.6	13	-0.39	-10
C[C@@H]1CN([C@@H](C)CO)C(=O)c2cccc(NC(=O)Nc3ccc(F)cc3)c2O[C@@H]1CN(C)C(=O)Nc1ccc(C(F)(F)F)cc1	-2.2	6	0.39	?
COc1c2c(c(O)c3c(=O)c4c(OC)c(O)ccc4oc13)C1CCCC(C)(O2)O1 (stereo not drawn)	1.5	-13	1.4	-35
C[C@@H]1CN([C@H](C)CO)C(=O)Cc2cc(N(C)C)ccc2O[C@H]1CN(C)Cc1ccc(Cl)c(Cl)c1	-3.0	-12	0.13	-36
Cc1noc(C)c1S(=O)(=O)Nc1ccc2c(c1)CC(=O)N([C@H](C)CO)C[C@H](C)[C@H](CN(C)S(=O)(=O)c1c(C)noc1C)O2	-0.2	-11	-0.62	nt
Cc1cc(C)cc(NC(=O)C2CC(=O)n3ncnc3N2)c1 (stereo not drawn)	1.2	-14	nt	nt
COc1ccc(CN(C)C[C@H]2Oc3ccc(NC(=O)NC4CCCCC4)cc3C(=O)N([C@@H](C)CO)C[C@@H]2C)cc1	0.1	-8	0.024	-25
C[C@H]1CN([C@@H](C)CO)C(=O)Cc2cc(NC(=O)CCCN(C)C)ccc2O[C@H]1CN(C)Cc1ccc(Oc2ccccc2)cc1	nt	-5	0.27	-9
O=S(=O)(c1ccccc1)c1nc(-c2cccs2)oc1NCc1ccco1	-0.7	-5	nt	nt
C[C@@H]1CN([C@@H](C)CO)C(=O)c2cccc(NC(=O)C3CC3)c2O[C@@H]1CN(C)S(C)(=O)=O	nt	-2	-0.32	-61
Cc1cc(C)cc(CC(C(=O)O)C(C)C(=O)NCc2ccccc2)c1 (stereo not drawn)	-0.4	-7	-0.12	-17
CN1CCCCC1CCN1c2ccccc2Sc2ccc(S(C)=O)cc21 (stereo not drawn)	6.5	-9&-11	-0.14&0.16	40&15
Cc1ccc(S(=O)(=O)Nc2ccc3c(c2)C(=O)N([C@H](C)CO)C[C@@H](C)[C@H](CN(C)C(=O)Nc2c(C)noc2C)O3)cc1	-0.1	-6	0.39	-7
COc1ccc(NC(=O)Nc2cccc3c2O[C@@H](CN(C)S(=O)(=O)c2ccc(C)cc2)[C@H](C)CN([C@H](C)CO)C3=O)cc1	-2.0	-4	0.01	0
Cc1ccc(S(=O)(=O)N(C)C[C@@H]2Oc3c(NS(=O)(=O)c4ccc(Cl)cc4)cccc3C(=O)N([C@@H](C)CO)C[C@@H]2C)cc1	-0.4	3	-0.2	-26
CN(CC(=O)Nc1cccc(Cl)c1)S(=O)(=O)c1ccc2ccccc2c1	2.3	27	nt	nt
COc1ccc(S(=O)(=O)Nc2ccc3c(c2)C(=O)N([C@@H](C)CO)C[C@@H](C)[C@H](CN(C)C)O3)cc1	1.7	-2	-0.13	nt
CC1(C)NC(=O)N(CCCCOc2ccccc2[N+](=O)[O-])C1=O	2.8	-16	nt	nt
CC(C)NC(=O)N(C)C[C@H]1Oc2ccc(NC(=O)Cn3cnnn3)cc2C(=O)N([C@H](C)CO)C[C@H]1C	nt	-9	0.13	-19
CC1=C(C(=O)Nc2cccnc2)C(c2cccnc2)n2ncnc2N1 (stereo not drawn)	2.2	-13	nt	nt
C[C@@H]1CN([C@@H](C)CO)C(=O)Cc2cc(NC(=O)Nc3ccccc3)ccc2O[C@@H]1CN(C)S(C)(=O)=O	-1.3	-12	-0.044	-11
Cc1ccc(S(=O)(=O)NC2(C(F)(F)F)C(=O)N(CC3CCCO3)C3=C2C(=O)CC(C)(C)C3)cc1 (stereo not drawn)	-1.4	-12	nt	nt
O=C(O)CCSc1nnc(-c2ccncc2)n1-c1ccccc1	1.2	-9	nt	nt
COc1cc(OC)c(NC(=O)CN2C(=O)c3ccccc3C2=O)cc1Cl	-0.1	-5	nt	nt

Compound profiles, from the list above. Order of screens: PD-1 reversal, MITF inh, YB-1 expr inh, Shh pathway inh
Entry for CN(CC(=O)Nc1cccc(Cl)c1)S(=O)(=O)c1ccc2ccccc2c1 = 2.3, 27, nt, nt
Entry for C[C@@H]1CN([C@@H](C)CO)C(=O)Cc2cc(NC(=O)Nc3ccccc3)ccc2O[C@@H]1CN(C)S(C)(=O)=O = -1.3, -12, -0.044, -11
